Screening data deposited in PubChem by National Center for Advancing Translational Sciences (NCATS).
TRPML1 ag: qHTS for Agonists of the Human Mucolipin Transient Receptor Potential 1 (TRPML1); TRPML1-expressing cells, Ca2+ dye fluorescence, FDSS; host cell line not named in the record; reference of the full effect not given here; activation, % (no concentration beside the values); hit rate 0.12% among 410,000; AID 624414, 2012; in the data active = activation above about 50%; inconclusive = about 30% to 50%; inactive = below about 30%; note: 0% is about no effect; the text of the record puts the active cut at 80%
Target sequence (Q9GZU1 whole entry, looked up): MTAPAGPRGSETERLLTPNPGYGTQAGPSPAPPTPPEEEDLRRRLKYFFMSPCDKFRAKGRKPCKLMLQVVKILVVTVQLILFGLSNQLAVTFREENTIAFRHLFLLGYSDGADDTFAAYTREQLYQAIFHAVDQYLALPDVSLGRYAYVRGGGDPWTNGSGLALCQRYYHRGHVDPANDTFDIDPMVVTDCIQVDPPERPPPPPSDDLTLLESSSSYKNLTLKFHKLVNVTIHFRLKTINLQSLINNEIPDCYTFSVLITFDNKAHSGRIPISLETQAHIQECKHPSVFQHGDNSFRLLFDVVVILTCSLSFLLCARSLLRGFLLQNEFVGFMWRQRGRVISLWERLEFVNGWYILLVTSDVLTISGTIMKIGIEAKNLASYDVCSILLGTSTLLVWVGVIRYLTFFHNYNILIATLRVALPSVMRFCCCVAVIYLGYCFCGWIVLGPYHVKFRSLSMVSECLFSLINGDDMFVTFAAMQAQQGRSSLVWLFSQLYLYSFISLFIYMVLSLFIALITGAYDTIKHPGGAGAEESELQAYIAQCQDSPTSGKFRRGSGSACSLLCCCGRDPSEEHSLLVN
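Agonist activity was taken from a 110 s kinetic Ca2+ dye read on the FDSS after pinning compounds onto TRPML1-DL cells. The cells were seeded at 1,500/well with Tet inducer, incubated about 16 h, then dye-loaded at room temperature.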
Sfp PPTase inh: qHTS Assay for Inhibitors of Bacillus subtilis Sfp phosphopantetheinyl transferase (PPTase) | 4'-phosphopantetheinyl transferase ffp (Bacillus subtilis), Q9F4F7 | Biochemical Sfp PPTase activity, qHTS | Potency, µM, for the others: max response, negative = inhibition, hits mostly inhibitors | hit rate 3.5% among 310,000 | AID 1490, 2009; active = well fitted inhibition curve with a large enough effect; inconclusive = small, poorly fitted or top-dose-only effect, or another doubt; inactive = no such curve, though single readings can be large or run the other way;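 note: the enzyme is Sfp with the accession as filed and its product quenches rhodamine fluorescence; potency is the fitted concentration of half-maximal effect; 0% = enzyme reaction without inhibitor and -100% = no enzyme wells; top concentration of the series not given in the record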
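Buffer: 50 mM Hepes-Na pH 7.6, 10 mM MgCl2, 0.01% Nonidet P-40, 0.01% BSA. Enzyme 15 nM, pre-exposed to compound 15 min; substrates then added and fluorescence change tracked over 30 min.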
PINK1 expr mod: A Quantitative High throughput Screen to Identify Chemical Modulators of PINK1 Expression; hit rate 0.2% among 410,000; Potency, µM (top dose mostly 76.6 µM), without a hit: at the top dose activation (PINK1 increase), usual class: activators; AID 624263, 2012; PINK1 immunofluorescence, high-content cytometry, 24 h; active = well fitted activation curve with a large enough effect; inconclusive = small, poorly fitted or top-dose-only effect; inactive = flat fitted curve, though single readings scatter; cell line not stated here;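 note: potency is the fitted concentration of half-maximal effect; % of control where 0% means no effect; nearly all actives have a fitted effect of over 65% in size; a mitochondrial uncoupler was the plate control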
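Stable cell line treated 24 h with compounds at 5 concentrations (CCCP controls), then fixed and immunostained for PINK1 plus nuclear and cell stains; PINK1 immunofluorescence quantified by laser-scanning microplate cytometry.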
ClpP mod: qHTS Assay for Activators of ClpP; hit rate 1.9% among 340,000; ATP-dependent Clp protease proteolytic subunit (Bacillus subtilis (strain 168)), P80244; Potency, µM (highest dose often 57.5 µM), for the others: at the highest dose activity change, negative = active; purified B. subtilis ClpP, FRET peptide cleavage, 20 min; AID 651965, 2013; active = well fitted falling curve with a large enough effect; inconclusive = small, poorly fitted or top-dose-only effect; inactive = no such curve, though single readings can be large or run the other way; note: potency is the fitted concentration of half-maximal effect; the source files actives as falling curves though it sought activators and does not explain the sign; nearly all actives have a fitted effect of over 65% in size; many hits overshoot -100%
Target sequence (P80244 whole entry, looked up): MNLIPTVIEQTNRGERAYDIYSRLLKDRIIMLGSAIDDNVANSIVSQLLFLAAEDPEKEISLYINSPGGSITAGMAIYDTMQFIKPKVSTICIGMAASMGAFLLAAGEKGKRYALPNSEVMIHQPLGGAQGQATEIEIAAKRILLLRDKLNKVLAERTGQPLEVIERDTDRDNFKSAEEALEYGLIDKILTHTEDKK
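FRET quenching reversal measured ClpP activation: 10 microg/mL B. subtilis ClpP at pH 8 with the FRET-FV decapeptide, read at 430 nm after 320 nm excitation. The 20-min minus 0-min signal was scaled between DMSO/no-enzyme wells and ADEP (5.8 microM final).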
TRPV1 potentiator: HTS Assay for Compounds that Act as Potentiators of the Vanilloid Receptor 1 | Transient receptor potential cation channel subfamily V member 1 (Homo sapiens), Q8NER1 | TRPV1-expressing cells, Fluo-8 calcium influx, capsaicin EC20 potentiation; host cell line not named in the record; control for the full effect not named in the record | potentiation, % at 8.33 µM | hit rate 0.02% among 320,000 | AID 540277, 2011; active means potentiation above 80%; inconclusive means 30% to 80%; inactive means below 30%; note: 0% is about no effect
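Fluo-8 calcium influx in TRPV1-expressing cells, kinetic read (ex 480/em 520 nm). Compound added and read 3 min for agonist activity, followed by capsaicin at EC20 final and 2 min further read for enhancement.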
TRPML1 inh: qHTS for Inhibitors of the Human Mucolipin Transient Receptor Potential 1 (TRPML1). AID 624415, 2012. TRPML1-inducible cells, Ca2+ dye fluorescence, FDSS; hits give low values; inhibition of EC80 agonist-evoked calcium signal. Mucolipin-1 (Homo sapiens), Q9GZU1. hit rate 0.02% among 390,000. activity change, negative = inhibition, % (concentration not given with the values); in the data active means activity change below about -50%; inconclusive means about -30% to -50%; inactive means above about -30%;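 note: stimulus is agonist 54-4 at its EC80 concentration; % is set by controls: 0 for no effect and ±100 for the full control effect; compound concentration not given in the record; the text of the record puts the active cut at -80%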
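Tet-induced TRPML1-DL cells loaded with Ca8 no-wash calcium dye were read kinetically on FDSS. Compound addition was followed by EC80 agonist 54-4 (4 uM final); inhibition was read over 110 s.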
Menin-MLL FL inh: qHTS Assay for Inhibitors Targeting the Menin-MLL Interaction in MLL Related Leukemias: Competition With Fluorescein Labeled MLL-derived Peptide; Fluorescence polarization, fluorescein-MLL peptide displacement from menin; FP activity change, % at 61.4 µM; 290,000 tested, under 10 active; inconclusive = falling polarisation curve, or a change in total fluorescence; inactive = total fluorescence flat and polarisation flat or rising; no compound was filed as active; the % refers to the polarisation; negative = inhibition;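 note: % of control where 0% means no effect; inhibitors lower the polarisation; unlabelled MLL peptide was the positive control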
* hit, by the source's call; u = inconclusive; x = not tested or not shown; & = joins results of further samples.

SMILES	TRPML1 ag	Sfp PPTase inh	PINK1 expr mod	ClpP mod	TRPV1 potentiator	TRPML1 inh	Menin-MLL FL inh
O=c1c2cc(Br)ccc2nc(-c2ccc([N+](=O)[O-])cc2)n1O	7.1	15.1%	6.7%	x	-2.8	-2.0	2.7
COc1ccc(CCNC2CC(=O)N(CCc3ccccc3)C2=O)cc1OC (stereo not given)	0.4	4.5%	u	0.6%	x	-15.7	-2.0
O=C(COc1cc(Cl)ccc1Cl)Nc1ccc2[nH]c(=O)[nH]c2c1	-1.0	x	5.7%	x	13.7	13.4	x
O=C(c1ccc(Br)s1)N(Cc1cccnc1)c1nc2ccc(F)cc2s1	2.4	x	-7.2%	-12.6%	x	6.4	x
CCCCN1C(=O)N(C)C2C1N(C)C(=O)N2CCCC (stereo not given)	-0.1	6.8%	-0.6%	0.3%	-2.2	2.0	-1.4
COc1ccccc1C(=O)COC(=O)Cc1c[nH]c2ccccc12	0.5	x	1.7%	2.2%	9.5	2.2	x
Cc1ccc(S(=O)(=O)Nc2ccc3c(c2)C(=O)N([C@@H](C)CO)C[C@@H](C)[C@@H](CN(C)C(=O)NC2CCCCC2)OCCCC[C@H](C)O3)cc1	0.0	x	0.0%	-4.4%	x	x	x
CCC1=Nc2cc(C(=O)NCCCN3CCOCC3)ccc2Sc2ccc(Br)cc21	-0.4	-20.7%	2.9%	0.5%	-26.0	2.6	1.1
COc1ccc(C2/C=C\CN(C(=O)Oc3ccccc3)CC(=O)N2Cc2ccc(F)cc2)cc1 (stereo not given)	1.3&-0.4	1.2%&-2.3%	-0.2%	-0.9%	u	16.8&-8.8	1.3&-1.7
COc1ccc(CCNC(=O)C2CCN(S(=O)(=O)c3cccc4cccnc34)CC2)cc1OC	0.8	6.7%	-0.6%	2.4%	15.9	3.9	x
COc1cccc(-c2ccc(SCC(=O)NC3CCCCC3)nn2)c1	2.3	12.5%	0.8%	0.7%	0.5	2.7	-5.0
C[N+](C)(C)CCCNC(=O)c1ccc(/C=N/O)nc1	0.9	u	-0.3%	1.0%	-1.2	10.3	-0.4
CCOc1ccc(OCC)c(NC(=O)C2CCN(S(=O)(=O)c3cnc[nH]3)CC2)c1	-0.1	2.3%	-0.7%	-2.1%	0.7	-3.1	-0.5
CCCn1c(=O)cc(N)n(-c2ccc(OC(F)(F)F)cc2)c1=O	x	0.8%	1.8%	-1.2%	26.8	x	-6.2
Cc1ccccc1C(=O)NCC(=O)NNC(=S)NC(=O)c1ccccc1C	0.9	-18.3%	0.6%	-1.8%	-3.6	8.6	0.8
CC(C)[C@H](NC(=O)c1cccc(S(=O)(=O)N2CCOCC2)c1)C(=O)Nc1nc2ccccc2s1	3.5	2.1%	5.5%	0.6%	-4.7	4.6	2.2
c1ccc(CCc2ccccc2-c2nc(-c3cccnc3)no2)cc1	2.2	u	6.2%	-1.0%	13.4	42.9	-1.7
CCC(=O)N1CCc2cc(Br)cc(S(=O)(=O)N3CCCC(C(=O)NC(C)(C)C)C3)c21 (stereo not given)	0.1	10.7%	-1.4%	x	-2.3	-2.8	0.5
O=C(NCCc1ccccc1)C1CCN(Cc2cc3ccccc3n2Cc2ccccc2)CC1	2.6	x	-1.0%	u	x	-5.5	x
Cc1cccc2sc(NC(=O)c3ccc(NS(=O)(=O)c4cccs4)cc3)nc12	1.6	-8.7%	-0.8%	u	-13.8	-0.6	1.3
CC(C)(C)OC(=O)N1CCC(c2c(C(=O)NCCN3CCOCC3)cnn2-c2cccc(Cl)c2)CC1	0.5	x	-0.4%	2.3%	x	9.9	x
CS(=O)(=O)Nc1ccccc1C(=O)Nc1cc2c(cc1C(=O)O)OCCCO2	1.1	-0.7%	-0.5%	-5.3%	19.0	-13.0	6.3
O=[N+]([O-])c1nn(-c2ccccc2)n(O)c1=NC1CCN(Cc2ccccc2)CC1	0.9	16.5%	-2.0%	x	-6.8	13.3	-9.7
Cc1[nH]c2ccccc2c1/C=N/NC(=O)CNC(=O)c1ccc2c(c1)OCO2	-0.4	7.6%	0.9%	x	8.6	0.1	3.2
Cc1c(C(=O)N2CCC(C)CC2)sc2ncn(CC(=O)N3CCC(C)CC3)c(=O)c12	-0.4	10.8%	1.1%	1.7%	-15.2	7.2	0.1
Cc1ccc2cccc(NC(=O)c3ccc(-c4cccc(Cl)c4)o3)c2n1	-0.3	x	-2.4%	-3.3%	x	-8.9	x
Cc1ccc(S(=O)(=O)NCCSc2nnnn2-c2cc(C)ccc2C)cc1	0.3	6.3%	-1.3%	-2.0%	6.8	8.6	5.9
C=CCC1(CC=C)CCCN1C(=O)C1CCC(=O)N(Cc2ccc(Cl)cc2)C1 (stereo not given)	-0.8	x	1.0%	2.3%	x	-1.5	x
CCOC(=O)C1=C(c2ccc(OC)cc2)C(=O)c2ccccc2C1=O	2.1	-5.9%	u	-5.8%	12.2	17.5	-2.5
CCCCN(c1nc2ccccc2nc1Cl)S(=O)(=O)c1ccc(C)cc1	0.2	-5.5%	1.6%	-8.5%	6.7	18.5	10.6
O=C(c1ccc2c3c(cccc13)CC2)C1CCCN(Cc2ccc(OCCO)cc2)C1 (stereo not given)	-0.6	11.2%	2.7%	4.4%	-48.3	-7.3	-1.1
COc1ccc(CCN(C)C2CCCN(C(=O)c3sccc3C)C2)cc1OC (stereo not given)	0.0	12.3%	-0.9%	0.3%	-9.4	-5.5	-0.7
CN(C)CCNC(=S)Nc1ccccc1Cl	0.2	15.4%	-0.6%	1.2%	4.7	3.4	-1.8
Cc1c(Cl)cccc1NC(=S)Nc1ccc(S(=O)(=O)Nc2ncccn2)cc1	-0.3	x	-1.0%	-1.9%	x	8.7	x
O=C(Cn1cnc2scc(-c3ccc(F)cc3)c2c1=O)N1CCOCC1	-0.7	4.6%	2.6%	0.0%	-1.0	12.2	0.6
CCOC(=O)c1sc(NC(=O)c2ccncc2)nc1C	-1.5	-1.2%	3.0%	-23.2%	-31.5	-10.3	2.9
Cc1c(C(=O)NCc2n[nH]c(=S)n2-c2ccc(F)cc2)cccc1[N+](=O)[O-]	1.2	20.3%	0.5%	0.9%	-8.1	-15.3	-3.2
CC(C)[C@H](NC(=O)c1ccco1)C(=O)Nc1ccc(N2CCCCCC2)cc1	0.1	x	-0.7%	-0.9%	x	4.2	x
N#Cc1cccc(NC(=O)COC(=O)c2cc(S(=O)(=O)Nc3ccccc3Cl)ccc2O)c1	0.2	x	26.4%	1.3%	x	38.0	x
Cc1nn(Cc2ccccc2)c(C)c1NC(=O)c1cc(C(C)C)on1	-0.6	x	1.4%	0.5%	x	32.9	x
CCCCNS(=O)(=O)c1ccc(OC)c2ncccc12	0.7	14.7%	2.2%	28.2µM*	-12.6	-12.4	-1.5
CN1CCN(CC(=O)Nc2nc(-c3ccccc3)cs2)CC1	0.9	-7.2%	0.7%	-0.6%	10.5	21.7	-1.3
O=C(Nc1cccc(F)c1)c1c(O)c2cccc3c2n(c1=O)CCC3	x	12.1%	x	x	-2.6	x	1.6
OCCN1CCN(C(=S)NC2CCCC2)CC1	-0.5	17.1%	0.8%	x	7.2	-8.6	-2.6
Cc1cc(-n2c(C)nc3ccccc3c2=O)ccc1NC(=O)C(F)(F)F	-0.8	x	-0.4%	-0.5%	x	-0.9	x
Cc1cccc2sc(NC(=O)Cn3cccc3)nc12	-0.1	-7.6%	2.3%	3.6%	-14.2	-15.3	0.3
O=C(CCCN1C(=O)c2cccc3cccc(c23)C1=O)N1CCN(c2ccccn2)CC1	0.8	5.0%	1.6%	-6.7%	0.4	5.7	2.6
O=C(OCC(=O)N1CCN(c2ccccc2)CC1)C1=COCCO1	-0.1	10.4%	-1.9%	1.2%	0.2	-18.7	1.9
Cn1cnc2cc(NCc3ccccc3Cl)ccc21	1.1	4.6%	2.5%	x	0.1	-7.4	1.7
Cc1ccc2nc(-c3cccc(Br)c3)cc(C(=O)NC3=NCCS3)c2c1	0.2	-20.1%	6.4%	0.0%	-1.0	3.6	-0.4
O=C(NCc1ccc2c(c1)OCO2)c1cc(F)c(F)cc1Cl	-0.2	3.6%	0.0%	0.9%	1.0	-5.8	-1.4
CC(=O)Nc1ccc(S(=O)(=O)N[C@@H](C)C(=O)OCC(=O)c2ccc(Br)s2)cc1	-0.5	x	0.1%	-0.9%	x	-2.3	x
COc1ccc(S(=O)(=O)N(C)C[C@H]2Oc3ncc(Br)cc3C(=O)N([C@@H](C)CO)C[C@@H]2C)cc1	-0.4	x	-2.6%	-1.6%	x	24.8	x
Cc1cc(C)cc(NC(=O)CN2C(=O)NC(C)(c3ccccc3)C2=O)c1 (stereo not given)	-1.1	16.6%	-0.6%	0.5%	-12.0	-6.3	-0.6
C/C(=N/NC(=O)c1ccco1)c1cccc(NC(=O)c2ccc(C)o2)c1	0.8	0.3%	-1.6%	-2.2%	-3.7	-0.8	-1.9
COc1ccccc1NC(=S)N1CCCC1	-0.4	4.6%	2.2%	-3.2%	-9.3	9.3	1.0
Cc1nc(C)c(C(=O)O)c(-c2ccsc2)c1C(=O)O	0.3	5.3%	2.1%	x	4.4	-13.0	0.3
N#CC1(NC(=O)CSc2nc3ncc(Cl)cc3[nH]2)CCCCC1	-0.8	x	-0.3%	u	17.9	17.8	x
O=C(NC1CCCCC1)C(c1ccncc1)N(Cc1ccc2c(c1)OCO2)C(=O)c1cnsn1 (stereo not given)	2.1	-0.6%	-2.1%	2.2%	-12.2	-4.4	0.2
COc1ccccc1CCN=C(N)NS(=O)(=O)c1ccc(C)cc1	1.8	18.7%	-0.6%	0.2%	7.9	-5.3	4.5
CSC1=NC2(C)CCCCC2C12C=CC(=O)C=C2 (stereo not given)	-0.6	-18.7%	0.1%	1.1%	u	12.3	0.1
Cc1ccc(C)c(CSc2nnc(C)c(=O)n2N)c1	0.8	-0.2%	0.4%	x	1.0	-2.1	-1.4
